Calb FLC – affects C. albicans growth with fluconazole; C. albicans CaCi-2 (fluconazole-resistant clinical isolate) + fluconazole, Alamar Blue growth, 48 h; growth inhibition, % (no concentration beside the values); 0.57% of 300,000 active; AID 1979;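 active means most replicates above 75%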;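 further: all wells also contain fluconazole at 8 µg/ml as a sub-toxic cotreatment; 0% = median of DMSO wells and 100% = median of geldanamycin control wells; wells of about 8 µL received 7.5 nL stock; the first replicate is given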
ALR inh – blocks human ALR sulfhydryl oxidase activity | inhibition, % (test concentration not listed) | 3.8% of 290,000 active | AID 485317 | purified ALR, DTT oxidation, H2O2 HRP-luminol luminescence | P55789;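 active means mean and each replicate at 75% or more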;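 further: stock transfer was 7.5 nL into about 7.5 µL; 0% = neutral wells and 100% = wells with inactivated enzyme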
LANA-H2A inh – blocks KSHV LANA binding to histone H2A/H2B. cell-free LANA-H2A/H2B peptide, fluorescence polarization. Q9QR71. inhibition, % (test concentration not listed). 0.6% of 320,000 active. AID 2629; in the data active means inhibition mostly above about 10%, no sharp cut-off; inactive means mostly below about 6.7%;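 further: stock transfer was 7.5 nL into about 10 µL; 0% = median of vehicle wells and 100% = median of positive control wells; one replicate is shown; the record names a cut of 25% in any replicate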
Target sequence (Q9QR71 whole entry, looked up): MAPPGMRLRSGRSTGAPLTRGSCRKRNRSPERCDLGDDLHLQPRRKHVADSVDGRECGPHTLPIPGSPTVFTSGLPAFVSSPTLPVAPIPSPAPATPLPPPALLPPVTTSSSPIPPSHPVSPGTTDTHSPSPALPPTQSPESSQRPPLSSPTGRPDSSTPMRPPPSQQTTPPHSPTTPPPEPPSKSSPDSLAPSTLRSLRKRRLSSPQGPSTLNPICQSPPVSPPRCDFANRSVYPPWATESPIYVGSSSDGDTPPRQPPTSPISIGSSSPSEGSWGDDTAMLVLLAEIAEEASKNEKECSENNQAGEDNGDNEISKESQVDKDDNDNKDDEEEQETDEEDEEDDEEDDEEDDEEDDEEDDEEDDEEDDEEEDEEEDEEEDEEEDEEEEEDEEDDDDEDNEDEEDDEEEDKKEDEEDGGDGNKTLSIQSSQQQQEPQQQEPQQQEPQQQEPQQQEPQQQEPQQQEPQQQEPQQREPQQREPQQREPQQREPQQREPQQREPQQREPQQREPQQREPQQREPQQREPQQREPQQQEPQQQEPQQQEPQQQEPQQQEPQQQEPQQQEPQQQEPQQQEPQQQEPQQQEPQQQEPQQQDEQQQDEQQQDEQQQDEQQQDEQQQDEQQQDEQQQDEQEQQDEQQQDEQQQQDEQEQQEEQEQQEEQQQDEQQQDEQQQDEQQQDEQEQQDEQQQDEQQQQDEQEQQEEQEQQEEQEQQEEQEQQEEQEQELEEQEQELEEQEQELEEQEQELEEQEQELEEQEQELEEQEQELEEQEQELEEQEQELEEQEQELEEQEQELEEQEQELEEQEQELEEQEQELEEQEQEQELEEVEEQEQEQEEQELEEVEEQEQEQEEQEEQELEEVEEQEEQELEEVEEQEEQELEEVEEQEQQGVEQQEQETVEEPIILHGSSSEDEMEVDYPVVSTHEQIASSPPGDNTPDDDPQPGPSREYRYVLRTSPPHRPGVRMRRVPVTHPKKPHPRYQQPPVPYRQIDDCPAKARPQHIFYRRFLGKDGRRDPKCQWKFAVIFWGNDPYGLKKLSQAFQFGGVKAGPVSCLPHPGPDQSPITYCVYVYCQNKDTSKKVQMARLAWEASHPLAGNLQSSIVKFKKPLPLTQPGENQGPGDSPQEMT
T cruzi repl – blocks replication of Trypanosoma cruzi; 1.4% of 300,000 active; inhibition, % (test concentration not listed); AID 1885; T. cruzi beta-gal in NIH3T3, luminescence, 90 h;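 active means mean inhibition across valid replicates above about 55%, limit read from the data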;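 further: signal also drops with host cell toxicity which is not excluded here; 0% = plate median of DMSO wells and 100% = zero luminescence signal; higher percent means less beta-gal luminescence so fewer parasites; stock transfer was 50 nL into about 50 µL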
Beta cell apopt – beta cell apoptosis inhibition; protection from apoptosis, % (no concentration beside the values); INS-1E cytokine-induced death, ATP luminescence, 48 h; percent of positive-control rescue, neutral wells zero; 0.8% of 300,000 active;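 active means all replicates at 75% or more, or half of them and the mean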;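 further: 0% = cytokine-treated negative control wells and 100% = positive control rescue; higher means more ATP so stronger rescue from cytokine killing; wells of about 40 µL received 100 nL stock; the first replicate is given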
rRNA inh HTS – selective bacterial rRNA inhibition in E. coli. 1.6% of 350,000 active. E. coli WT GFP vs humanized-ribosome RFP mutants, fluorescence, 24 h; stronger effect = lower value; DMSO median 0, no signal -100. GFP signal change (wild-type ribosome), % (no concentration beside the values);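 active means significant combined selectivity score with lowered wild-type GFP, culture density cut under 30%, mutant RFP and density less affected; inactive means any of these conditions unmet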; further: one replicate is shown; some compounds called inactive have numbers as strong as hits
B2AR ag – agonists of human beta-2 adrenergic receptor inducing internalization | response, % (concentration not given with the values) | P07550 | 0.43% of 340,000 active | Am2.2-beta2AR cells, FAP receptor internalization, flow cytometry; reference of the scale not given here;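 active means response above a set limit, near 3 SD of response in nonfluorescent compounds, cut at about 42% in these data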;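 further: stock transfer was 100 nL into about 11 µL; a reference agonist was the positive control; negative values mostly stem from fluorescent compounds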
Bfl-1 A1 inh – inhibitors of the anti-apoptotic protein A1, read as caspase activation; MEF A1-2A-BIM cells, Caspase-Glo 3/7 luminescence, 3 h; percent of clofoctol response, vehicle zero; 0.066% of 330,000 active; caspase activation, % (no concentration beside the values); AID 2462;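 active means over half of replicate activation scores above 10%, or exactly half above 10 with the replicate mean above 10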;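 further: wells of about 30 µL received 50 nL stock; many hits fall short of the cut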
rRNA inh HTS OD600 – further read-out of rRNA inh HTS, marked with its call; OD600 change, %; measured here: OD600 growth;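 optical density of the mix in the first replicate; 0 = DMSO median and -100 = no signal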
rRNA inh HTS RFP – further read-out of rRNA inh HTS, marked with its call; RFP signal change, %; measured here: RFP humanized mutant strains;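 first replicate; 0 = DMSO median and -100 = no signal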
Starred values were filed as active, the others as inactive.

`C=CCOc1c(CNc2cccc(C(=O)O)c2)cccc1OC` gave Calb FLC 5.9, T cruzi repl -5.7, Beta cell apopt 2.3, B2AR ag -1.6 and Bfl-1 A1 inh -0.6.
CCOC(=O)Cc1csc(NC(=O)c2csc3c2CCCC3)n1 was read as Calb FLC -7.3, ALR inh -8.8, LANA-H2A inh 0.0, T cruzi repl 1.4, Beta cell apopt -0.3, B2AR ag -0.3 and Bfl-1 A1 inh 0.3.
For Cc1c(NC(=O)CCC(=O)N2CCCCC2)c(=O)n(-c2ccccc2)n1C the results were Calb FLC 0.2, ALR inh -4.6, LANA-H2A inh 8.7, T cruzi repl 0.7, Beta cell apopt 2.3, B2AR ag -0.4 and Bfl-1 A1 inh -0.1.
Screening CCC(=O)c1ccc(OCC(=O)Nc2ccc3c(c2)OCCO3)cc1 returned ALR inh -14.8, LANA-H2A inh 6.6, Beta cell apopt 1.9, rRNA inh HTS 0.7, B2AR ag -10.0, Bfl-1 A1 inh 0.6, rRNA inh HTS OD600 19.1 and rRNA inh HTS RFP -1.1.
CC1CCN(C(=O)C(C)c2ccc([N+](=O)[O-])cc2)CC1 (configuration not stated) was read as Calb FLC 14.0, ALR inh -1.9, LANA-H2A inh 3.0, T cruzi repl 5.4, Beta cell apopt 3.9, rRNA inh HTS 0.7, B2AR ag -2.6, Bfl-1 A1 inh -0.1, rRNA inh HTS OD600 7.1 and rRNA inh HTS RFP -1.6.
Screening Cc1ccc(S(=O)(=O)N2CCN(Cc3nc4sc5c(c4c(=O)[nH]3)CCCC5)CC2)cc1 returned Calb FLC -6.0, ALR inh -31.2, LANA-H2A inh -0.7, T cruzi repl 41.9, Beta cell apopt 7.9, rRNA inh HTS 1.2, B2AR ag -3.8, Bfl-1 A1 inh -0.2, rRNA inh HTS OD600 -5.2 and rRNA inh HTS RFP 1.5.
CN1CCC(=O)N(CCSc2ccccc2)CC1 was read as Calb FLC 9.2, LANA-H2A inh -2.1, T cruzi repl -2.0, Beta cell apopt -2.8, rRNA inh HTS 4.6, B2AR ag 3.3, Bfl-1 A1 inh -0.7, rRNA inh HTS OD600 5.4 and rRNA inh HTS RFP -6.5.
`O=C(COC(=O)c1ccc(Cl)cc1[N+](=O)[O-])NC(=O)c1ccccc1` gave Calb FLC -11.3, ALR inh 0.5, LANA-H2A inh 1.1, T cruzi repl -9.2, Beta cell apopt -5.1, rRNA inh HTS 16.8, B2AR ag -3.0, Bfl-1 A1 inh 1.0, rRNA inh HTS OD600 13.8 and rRNA inh HTS RFP 1.6.
O=C(Nc1ccc(CN2CCOCC2)cc1)c1ccc(-c2cc(Cl)ccc2Cl)o1 was read as Calb FLC 35.5, ALR inh 17.5, LANA-H2A inh -1.3, T cruzi repl 23.3, Beta cell apopt 11.3, B2AR ag 10.4 and Bfl-1 A1 inh 0.4.
For Cc1ccc(Cn2nnnc2CN2CCC(O)(c3ccccc3F)CC2)cc1 the results were Calb FLC -4.5, ALR inh -3.0, LANA-H2A inh 1.6, T cruzi repl 11.0, Beta cell apopt -3.6, rRNA inh HTS 0.8, B2AR ag -2.6, Bfl-1 A1 inh -0.2, rRNA inh HTS OD600 7.3 and rRNA inh HTS RFP -1.2.
For COC(=O)c1ccc(CNC(=O)CCNC(=O)c2ccco2)cc1 the results were LANA-H2A inh 0.2, Beta cell apopt 0.4, rRNA inh HTS 3.8, B2AR ag -3.2, Bfl-1 A1 inh -1.2, rRNA inh HTS OD600 9.4 and rRNA inh HTS RFP -3.1.
O=C(O)CNC(=S)N(Cc1ccc(F)cc1)C1CCCCC1 was read as Calb FLC -1.5, ALR inh -6.0, LANA-H2A inh 3.2, T cruzi repl 2.9, Beta cell apopt 0.1, rRNA inh HTS -8.2, B2AR ag 10.8, Bfl-1 A1 inh -0.8, rRNA inh HTS OD600 -8.3 and rRNA inh HTS RFP -2.8.
`COc1ccccc1C(=O)NC(C)C(c1cccs1)N1CCN(C)CC1` (configuration not stated) gave Calb FLC -7.9, ALR inh 3.0, LANA-H2A inh 5.5, T cruzi repl 9.9, Beta cell apopt -13.5, B2AR ag -2.5 and Bfl-1 A1 inh 0.7.
Screening Cn1c(=O)[nH]c(=O)c2c1nc(N1CCCCC1)n2CCCSc1nc2ccccc2s1 returned Calb FLC 0.3, ALR inh 33.4, LANA-H2A inh -2.4, T cruzi repl 20.8, Beta cell apopt -2.4, B2AR ag -10.1 and Bfl-1 A1 inh 0.2.
Screening CNC[C@@H](CC1CCCCC1)NC[C@H](CC(C)C)NCCc1cccc(C(F)(F)F)c1 returned Calb FLC 88.5*, ALR inh -24.9, LANA-H2A inh 2.4, T cruzi repl 46.6, Beta cell apopt 112.2*, rRNA inh HTS -53.5, B2AR ag 42.7*, Bfl-1 A1 inh -0.3, rRNA inh HTS OD600 -82.3 and rRNA inh HTS RFP -19.4.
For CC(Oc1ccc(Cl)cc1Cl)C(=O)N(Cc1ccco1)C1CCS(=O)(=O)C1 (configuration not stated) the results were Calb FLC -4.8, ALR inh 0.4, LANA-H2A inh 2.1, T cruzi repl 12.2, Beta cell apopt 5.7, B2AR ag -3.1 and Bfl-1 A1 inh 0.0.
Screening COc1ccc(CNC(=O)C2CCN(S(=O)(=O)c3c(C)noc3/C=C/N(C)C)CC2)cc1 returned Calb FLC -1.4, ALR inh 6.6, LANA-H2A inh 0.5, T cruzi repl 11.8, Beta cell apopt -6.7, B2AR ag 6.9 and Bfl-1 A1 inh -0.8.
Cn1c(SCC(=O)Nc2ccc(N3CCOCC3)c(Cl)c2)nnc1C(O)c1ccccc1 (configuration not stated) was read as Calb FLC 2.4, ALR inh 4.6, LANA-H2A inh 5.2, T cruzi repl -10.9, Beta cell apopt -7.3, B2AR ag -0.4 and Bfl-1 A1 inh -0.5.
Screening COc1ccc(Cl)cc1S(=O)(=O)N1CCC(O)(c2ccc(Cl)cc2)CC1 returned Calb FLC 2.0, ALR inh -2.7, LANA-H2A inh 1.6, T cruzi repl 23.7, Beta cell apopt -3.4, rRNA inh HTS 12.4, B2AR ag 4.5, Bfl-1 A1 inh -0.3, rRNA inh HTS OD600 1.2 and rRNA inh HTS RFP 1.0.
CNC(=O)c1nnn(Cc2ccccc2)c1NC(=O)C(F)(F)F was read as Calb FLC -7.6, ALR inh -5.6, LANA-H2A inh 3.3, T cruzi repl -5.5, B2AR ag 9.4 and Bfl-1 A1 inh 1.7.
For C/C=C/C=C\C(=O)Nc1cccc(C2=NOC3(C2)C[C@H](C(N)=O)N(C(=O)/C=C/C)C3)c1 (some centres not stated) the results were Calb FLC -7.5, ALR inh -4.6, LANA-H2A inh -2.9, T cruzi repl -12.9, Beta cell apopt -1.6, rRNA inh HTS 5.6, B2AR ag 0.8, Bfl-1 A1 inh -0.1, rRNA inh HTS OD600 1.2 and rRNA inh HTS RFP 0.5.
For CCn1c(C)nc2cc(S(N)(=O)=O)ccc21 the results were Calb FLC -8.5, ALR inh 3.9, LANA-H2A inh 3.1, T cruzi repl 5.1, Beta cell apopt -1.2, rRNA inh HTS 18.4, B2AR ag 4.9, Bfl-1 A1 inh 0.2, rRNA inh HTS OD600 8.2 and rRNA inh HTS RFP 5.6.
Screening Cc1cc(C)c(NC(=O)Cn2ncc3ccccc32)c(C)c1 returned Calb FLC -21.8, ALR inh 2.2, LANA-H2A inh 1.5, T cruzi repl -13.9, Beta cell apopt -2.4, rRNA inh HTS 5.5, B2AR ag -2.1, Bfl-1 A1 inh -0.3, rRNA inh HTS OD600 13.2 and rRNA inh HTS RFP 1.2.
COc1ccc(CCCc2n[nH]c(=S)o2)cc1 was read as Calb FLC 38.7, ALR inh 68.7, LANA-H2A inh -2.8, T cruzi repl -8.8, Beta cell apopt 1.6, rRNA inh HTS -4.3, B2AR ag 2.5, Bfl-1 A1 inh -0.8, rRNA inh HTS OD600 0.2 and rRNA inh HTS RFP 8.7.
For O=C(O)CSc1ccc(Oc2ccc(SCC(=O)O)cc2)cc1 the results were Calb FLC -3.4, LANA-H2A inh -1.4, T cruzi repl -1.9, Beta cell apopt -2.6, rRNA inh HTS 23.5, B2AR ag -2.5, Bfl-1 A1 inh 0.6, rRNA inh HTS OD600 19.0 and rRNA inh HTS RFP 0.8.
CCOc1ccc(-n2c(-c3ccc(OC)cc3)c[n+]3c2CCCCC3)cc1 was read as Calb FLC 110.1*, ALR inh -1.2, LANA-H2A inh -2.2, T cruzi repl 52.6, Beta cell apopt 96.6*, rRNA inh HTS -47.2, B2AR ag 4.0, Bfl-1 A1 inh -1.3, rRNA inh HTS OD600 -51.5 and rRNA inh HTS RFP -0.2.
Screening CCN1CCc2nc(NC(=O)c3cc(F)c(F)cc3Cl)sc2C1 returned Calb FLC 12.0, ALR inh 17.0, LANA-H2A inh -2.0, T cruzi repl 1.8, Beta cell apopt 0.6, rRNA inh HTS 11.8, B2AR ag -10.9, Bfl-1 A1 inh 1.0, rRNA inh HTS OD600 6.9 and rRNA inh HTS RFP 1.6.
`O=C(c1cccc(NS(=O)(=O)c2ccccc2)c1)N1CCN(c2ccccc2)CC1` gave Calb FLC 0.4, ALR inh 12.4, LANA-H2A inh -0.2, T cruzi repl 8.5, Beta cell apopt -2.1, rRNA inh HTS -7.0, B2AR ag 9.4, Bfl-1 A1 inh 0.5, rRNA inh HTS OD600 -6.2 and rRNA inh HTS RFP 2.1.
For CC1Sc2ccc(S(=O)(=O)N3CCC(C(=O)NCc4ccc(Cl)cc4)CC3)cc2NC1=O (configuration not stated) the results were Calb FLC 12.1, ALR inh -12.1, LANA-H2A inh 5.8, T cruzi repl 10.4, Beta cell apopt 3.5, rRNA inh HTS -7.2, B2AR ag 4.7, Bfl-1 A1 inh -0.7, rRNA inh HTS OD600 -15.2 and rRNA inh HTS RFP 0.8.
`Cc1cc(C)n(-c2cc(N3CCN(S(=O)(=O)c4ccc(Cl)cc4)CC3)ccc2[N+](=O)[O-])n1` gave Calb FLC 15.3, ALR inh -1.8, LANA-H2A inh 6.8, T cruzi repl 13.6, Beta cell apopt 4.7, rRNA inh HTS -6.1, B2AR ag 0.5, Bfl-1 A1 inh -1.2, rRNA inh HTS OD600 1.7 and rRNA inh HTS RFP 4.9.
Screening COc1ccccc1NC(=O)c1nnn(Cc2ccccc2)c1NC(=O)C(F)(F)F returned Calb FLC -8.3, LANA-H2A inh 9.8, T cruzi repl -12.1, Beta cell apopt 2.8, B2AR ag 0.5 and Bfl-1 A1 inh -0.5.
Screening Cc1ccc(Cl)cc1N1CCN(C(=O)COc2ccc3c(c2)CCC3)CC1 returned Calb FLC -3.8, ALR inh 2.8, LANA-H2A inh -1.8, T cruzi repl 39.0, Beta cell apopt 2.8, rRNA inh HTS 4.4, B2AR ag 8.2, Bfl-1 A1 inh 0.6, rRNA inh HTS OD600 -6.0 and rRNA inh HTS RFP -0.4.
`O=C(CCc1nnc2n(Cc3ccc(F)cc3)c(=O)c3ccccc3n12)NCCN1CCOCC1` gave Calb FLC -1.5, ALR inh 11.7, LANA-H2A inh -2.0, T cruzi repl -5.7, Beta cell apopt -0.1, rRNA inh HTS -0.1, B2AR ag -12.0, Bfl-1 A1 inh 0.8, rRNA inh HTS OD600 6.2 and rRNA inh HTS RFP -2.2.

Only part of the results is shown; rates above refer to the full screens.
